Compound activity from PubChem.
D2 agonist = Beta-Arrestin HTS for Positive Allosteric Modulators of the Human D2 Dopamine Receptor: Agonists; DiscoveRx PathHunter D2 beta-arrestin, luminescence, 90 min; 100% = 57 uM dopamine signal; activation, % (no concentration beside the values); D(2) dopamine receptor (Homo sapiens), P14416; 0.084% of 360,000 active; in the data active = activation above about 40%; inconclusive = about 15% to 40%; inactive = below about 15%; note: compound concentration not given in the record; the text of the record calls up to 30% inactive
Target sequence (P14416 whole entry, looked up): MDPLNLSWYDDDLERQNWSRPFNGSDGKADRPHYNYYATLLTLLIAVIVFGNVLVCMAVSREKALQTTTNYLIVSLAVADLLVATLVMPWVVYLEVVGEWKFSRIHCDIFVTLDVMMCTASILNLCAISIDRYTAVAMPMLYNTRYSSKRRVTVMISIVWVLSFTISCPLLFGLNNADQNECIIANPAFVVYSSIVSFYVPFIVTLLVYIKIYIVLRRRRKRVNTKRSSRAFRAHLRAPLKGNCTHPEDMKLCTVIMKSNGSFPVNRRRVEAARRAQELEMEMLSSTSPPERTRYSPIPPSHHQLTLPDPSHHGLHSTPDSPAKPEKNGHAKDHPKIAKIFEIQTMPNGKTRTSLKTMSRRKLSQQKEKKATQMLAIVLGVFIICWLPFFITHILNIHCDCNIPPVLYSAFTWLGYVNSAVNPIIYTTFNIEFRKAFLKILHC
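Agonist mode: compounds alone added to overnight-plated D2 PathHunter cells for 90 min at 37 C, with 57 uM final dopamine (EC100) defining full response. Beta-arrestin recruitment detected by chemiluminescent reagent, read after 1 h at ambient temperature.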
Sfp PPTase inh = qHTS Assay for Inhibitors of Bacillus subtilis Sfp phosphopantetheinyl transferase (PPTase); Potency, µM, inactives show max response, negative = inhibition, usual class: inhibitors; Biochemical Sfp PPTase activity, qHTS; 3.5% of 310,000 active; 4'-phosphopantetheinyl transferase ffp (Bacillus subtilis), Q9F4F7; active = well fitted inhibition curve with a large enough effect; inconclusive = small, poorly fitted or top-dose-only effect, or another doubt; inactive = no such curve, though single readings can be large or run the other way;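 note: the enzyme is Sfp with the accession as filed and its product quenches rhodamine fluorescence; potency is the fitted concentration of half-maximal effect; 0% = enzyme reaction without inhibitor and -100% = no enzyme wells; top concentration of the series not given in the record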
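After 15 min at room temperature with compound, 15 nM Sfp received 5 uM rhodamine-CoA plus 12.5 uM BHQ-2-ybbR (50 mM Hepes pH 7.6, 10 mM MgCl2). Rate came from the fluorescence difference over 30 min, ex 525/em 598 nm.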
gsp antagonist = qHTS for Antagonists of gsp, the Etiologic Mutation Responsible for Fibrous Dysplasia/McCune-Albright Syndrome: qHTS; gsp-mutant cells, cAMP HTRF, 30 min; control for the full effect not named in the record; Potency, µM (highest dose often 76.9 µM), for the others: top-dose activity change, negative = inhibition, hits mostly inhibitors; 0.4% of 340,000 active; active = falling curve of any shape with a large fitted effect; inconclusive = falling curve, mostly with a smaller effect; inactive = flat or rising curve; cell line not stated here;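 note: intracellular cAMP measured with PDE inhibitor Ro 20-1724 present during compound exposure; potency is the fitted concentration of half-maximal effect; % is set by controls: 0 for no effect and ±100 for the full control effect; nearly all actives have a fitted effect of over 65% in size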
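HTRF cAMP measurement after 30 min RT detection following 30 min, 37C compound treatment alongside […] (added as 300 uM solution) in G418-selected cells seeded at 2000/well and grown 16–24 h.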
PINK1 modulator = A Quantitative High throughput Screen to Identify Chemical Modulators of PINK1 Expression. PINK1 immunofluorescence, high-content cytometry, 24 h. Potency, µM (titrated, usually from 76.6 µM), inactives show at the highest dose activation (PINK1 increase), usual class: activators. 0.2% of 410,000 active. AID 624263, 2012; active = well fitted activation curve with a large enough effect; inconclusive = small, poorly fitted or top-dose-only effect; inactive = flat fitted curve, though single readings scatter; cell line not stated here;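 note: potency is the fitted concentration of half-maximal effect; % of control where 0% means no effect; nearly all actives have a fitted effect of over 65% in size; a mitochondrial uncoupler was the plate control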
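Readout is PINK1 immunofluorescence, quantified alongside mitochondrial, cell and nuclear markers by laser-scanning microplate cytometry. Cells from a stable line were exposed to compound titrations (5 concentrations) for 24 hours, with CCCP controls.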
gsp agonist = qHTS for Agonist of gsp, the Etiologic Mutation Responsible for Fibrous Dysplasia/McCune-Albright Syndrome: qHTS; 0.13% of 340,000 active; Potency, µM (doses to about 76.9 µM), for the others: at the top dose activation (cAMP increase), actives largely listed as activators; gsp mutant cells, cAMP HTRF, 30 min; control for the full effect not named in the record; AID 624287, 2012; active = well fitted activation curve with a large enough effect; inconclusive = small, poorly fitted or top-dose-only effect, or another doubt; inactive = no such curve, though single readings can be large or run the other way; cell line not stated here;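 note: phosphodiesterase inhibitor Ro 20-1724 added with compounds to block cAMP breakdown; potency is the fitted concentration of half-maximal effect; nearly all actives have a fitted effect of over 60% in size; about a fifth of the inactives were tested at one dose only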
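Cells in DMEM/10% FBS with G418 were pretreated with compounds in DMSO plus […] (300 uM stock) for 30 min at 37C. cAMP was measured by HTRF (cAMP-d2 plus anti-cAMP antibody-K) after 30 min at room temperature.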
ClpP mod = qHTS Assay for Activators of ClpP. Potency, µM (series often up to 57.5 µM), inactives show at the highest dose activity change, negative = active. 1.9% of 340,000 active. purified B. subtilis ClpP, FRET peptide cleavage, 20 min. ATP-dependent Clp protease proteolytic subunit (Bacillus subtilis (strain 168)), P80244; active = well fitted falling curve with a large enough effect; inconclusive = small, poorly fitted or top-dose-only effect; inactive = no such curve, though single readings can be large or run the other way; note: potency is the fitted concentration of half-maximal effect; the source files actives as falling curves though it sought activators and does not explain the sign; nearly all actives have a fitted effect of over 65% in size; many hits overshoot -100%
Target sequence (P80244 whole entry, looked up): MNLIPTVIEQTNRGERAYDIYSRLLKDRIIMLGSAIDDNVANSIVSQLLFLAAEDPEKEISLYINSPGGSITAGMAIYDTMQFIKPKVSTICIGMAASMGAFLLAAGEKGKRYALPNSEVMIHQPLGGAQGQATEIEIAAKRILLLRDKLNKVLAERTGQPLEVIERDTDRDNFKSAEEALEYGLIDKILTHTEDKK
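FRET quenching reversal measured ClpP activation: 10 microg/mL B. subtilis ClpP at pH 8 with the FRET-FV decapeptide, read at 430 nm after 320 nm excitation. The 20-min minus 0-min signal was scaled between DMSO/no-enzyme wells and ADEP (5.8 microM final).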
Menin MLL FP FL = qHTS Assay for Inhibitors Targeting the Menin-MLL Interaction in MLL Related Leukemias: Competition With Fluorescein Labeled MLL-derived Peptide. Fluorescence polarization, fluorescein-MLL peptide displacement from menin. FP activity change, % at 61.4 µM. 290,000 tested, under 10 active. AID 1766, 2009; inconclusive = falling polarisation curve, or a change in total fluorescence; inactive = total fluorescence flat and polarisation flat or rising; no compound was filed as active; the % refers to the polarisation; negative = inhibition;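 note: % of control where 0% means no effect; inhibitors lower the polarisation; unlabelled MLL peptide was the positive control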
The depositor's hits bear a star; ? = inconclusive; . = no result given; & = joins results of further samples; ! = a repeat was not active; [ ] = dose if it differs, or a comment. The order is random. About 5.1% of those tested had a hit in this group.

Structure,D2 agonist,Sfp PPTase inh,gsp antagonist,PINK1 modulator,gsp agonist,ClpP mod,Menin MLL FP FL
CC1CCN(C(=S)NC2CC3CCC2C3)CC1 (stereo unspecified),-1.5,7%,5%,-0.5%,-9%,-1.9%,3.3
COc1ncnc(-c2ccccc2)c1-c1ccccc1,-6.0,.,3%,0.8%,24%,-1.6%,.
CCOc1cc(C(=S)N2CCOCC2)ccc1OS(=O)(=O)c1ccc(OC)cc1,4.2,-18%,-1%,1.8%,-17%,.,-5.0
CCN(CC)c1ccc(N=Nc2ncn[nH]2)cc1,-3.0,8.9µM*,-3%,-2.7%,12%,.,32[activator]
COc1ccc(S(=O)(=O)N2CCCCC2)cc1NC(=O)Cc1sc(C)nc1-c1ccc(F)cc1,-2.1,.,-2%,3.4%,-9%,-4.3%,.
Cc1nc2c(-c3ccccc3)c(C)nn2c(C)c1CC(=O)O,0.5,8%,-6%,0.3%,?,-2.1%,2.5
COc1ccc(CCC(=O)NCCc2cn3c(C)csc3n2)cc1,-0.3,-1%,-3%,-0.6%,-41%[inhibitor],1.9%,-1.7
CC(NC(=O)/C(C#N)=C/c1ccc(N2CCOCC2)cc1)c1ccccc1 (stereo unspecified),-3.5,5%,?,1.5%,3%,.,?
COC(=O)c1oc2ccc(Br)cc2c1NC(=O)CN1CCN(C)CC1,-1.6,.,-1%,-1.2%,-6%,-2.0%,.
COc1ccc(OCCCC(=O)OC(C)C(=O)Nc2ccccc2[N+](=O)[O-])cc1 (stereo unspecified),-10,.,4%,-1.5%,4%[15.4 µM],0.5%,.
O=C(CN1CCC(NC(=O)C2CCCCC2)CC1)Nc1ccccc1,-4.2,.,9%,-0.2%,-4%[15.4 µM],.,.
O=C1c2ccccc2C(=O)N1CCSc1nncs1,0.1,19%,5%,.,-41%[inhibitor],-2.2%,2.5
CCOC(=O)NC(=O)CSc1nc(-c2ccc(C)c(C)c2)cn1-c1ccccc1,-0.8,-14%,-29%,?,14%[15.4 µM],-1.5%,12
CC1(C)CC(=O)N(CC(=O)NCc2ccccc2)c2ccccc2S1(=O)=O,1.1,-3%,-6%,0.6%,0%,0.6%,0.4
COC(=O)C(Cc1ccccc1)NS(=O)(=O)c1ccccc1Br (stereo unspecified),-0.1,7%&-5%,0%,-0.3%,-7%,0.1%,1.3&-0.2
C=CCSc1nc(Cc2ccc(Cl)cc2)nc2ccccc12,-1.0,-9%,15%,5.0%,18%,-6.7%,-0.3
Cc1cccc(CCNC(=O)C2CCC(=O)N(Cc3ccc(Cl)cc3)C2)n1 (stereo unspecified),-0.1,15%,9%,1.4%,-10%,-1.1%,.
COc1ccc(CCNC(=O)Nc2nnc([C@H]3C[C@H](O)[C@@H](CO)O3)s2)cc1OC,-6.1,.,.,-0.2%,.,-0.7%,.
COCCCN1C(=O)C(CC(=O)NC(c2ccccc2)c2ccccc2)CC(C(=O)N2CCOCC2)=C1C (stereo unspecified),-2.8,.,.,2.2%,23%,1.1%,.
CCCCOc1ccc(Cc2c(O)nc(SC)[nH]c2=O)cc1,0.9,15%,6%,0.9%,7%[15.4 µM],0.3%,1.6
Cc1nc2oc3ccc(F)cc3c(=O)c2cc1C(=O)O,-0.1,13%,-9%,3.9%,22%,.,?
COc1ccc(Nc2ccc3ccccc3c2)cc1,4.9,.,0%,12%,?,.,.
Cc1ccc(NC(=O)c2sc3nc4c(c(-c5ccco5)c3c2N)CCC4)cc1,0.0,-8%,-15%,9.6%,?,-1.1%,-7.8
CC(=O)c1ccc(S(=O)(=O)NCCC(=O)NCCc2c[nH]c3ccccc23)cc1,-4.6,.,-11%,1.4%,0%,-6.3%,.
O=C(O)CC1CCC(=C(Cl)Cl)C1 (stereo unspecified),-3.0,1%,-4%,-5.0%[38.3 µM],2%,-0.1%,3.1
COc1ccc(CN(C)C(=O)c2cccc(S(=O)(=O)N3CCc4ccccc43)c2)c(OC)c1,4.3,.,?,-0.2%,-30%[inhibitor],0.5%,.
Cc1cc2cc(C)c(NCCNC(=O)c3ccccc3)nc2cc1C,-4.5,?,-2%,1.2%,-56%[inhibitor],-24%,-1.6
O=C(N/N=C\c1ccc(CN(Cc2ccc(Cl)cc2)S(=O)(=O)c2ccccc2)o1)C(=O)Nc1ccc(F)cc1,-1.5,-12%,0%,5.1%,7%,-6.3%,-0.8
O=C(Nc1ccccc1Cl)c1cc(C2CCCCN2C(=O)CCCc2ccccc2)on1 (stereo unspecified),1.4,.,.,0.4%,.,-7.4%,.
COc1cccc(N2CC(C(=O)NCc3n[nH]c(=O)c4ccccc34)CC2=O)c1 (stereo unspecified),-3.4,.,0%,-0.7%,-34%[inhibitor],0.6%,.
Nc1nc(-c2ccc(C(=O)O)cc2)cs1,-0.3,-11%,12%,0.4%,-1%[15.4 µM],.,-6.0
COC(=O)/C=C1\NC(=O)C(C)S1 (stereo unspecified),-1.7,2%,6%,0.7%,-15%[15.4 µM],.,-0.1
Cn1cncc1COC(=O)c1ccc(Cl)cc1,11,10%,14%,3.3%,-65%[inhibitor],-1.3%,-4.7
CC(=O)N/C(=C\c1ccccc1)C(=O)OCC(=O)N1CCCCCC1,-6.3,18%,4%,-1.8%,-3%[15.4 µM],0.3%,2.5
O=S(=O)(/N=C(/Nc1cccc2ccccc12)c1ccccc1)c1ccccc1,6.9,2%,-1%,-0.3%,-4%,.,-3.3
O=C(CN1C(=O)c2cccc3cccc1c23)NCC1CCCO1 (stereo unspecified),-2.6,3%,3%,-0.9%,?,25µM*,-0.8
Cc1ccccc1N1CC(C(=O)N2CCCCCC2)CC1=O (stereo unspecified),-5.1,.,7%,-1.5%,5%[15.4 µM],.,.
CCOc1ccc(CN2C(=O)c3ccccc3Sc3ccc(C(=O)NCCCN4CCOCC4)cc32)cc1,4.4,-27%,0%,-1.2%&2.1%,-50%[inhibitor],-2.7%&0.4%,.
CCCNc1nc(Nc2ccc(C)c(Cl)c2)c2cnn(C)c2n1,12,7%,-2%,2.1%,32%,3.7%,0.9
O=C(COc1ccc2c(-c3ccccc3)cc(=O)oc2c1)NCC1CCC(C(=O)O)CC1 (stereo unspecified),-3.5,4%,-11%,-0.1%,.,-15%,2.3
CC(=O)c1cc(NC(=O)c2ccc(C)cc2)c(=O)oc1C,-2.1,?,3%,-0.4%,-22%[15.4 µM],.,8.3
COc1ccc(S(=O)(=O)N2CCCCCC2)cc1C(=O)N(C)Cc1cccs1,-1.4,.,-6%,-0.6%,7%[15.4 µM],-1.0%,.
Cc1ccnc2ccc(-c3nc4ccccc4o3)cc12,-1.5,-3%,1%,-1.4%&-0.7%,-33%,35µM*!,-1.7
Cc1occc1C(=O)N/N=C/c1ccccn1,-2.2,63µM*,18%,2.6%,19%,-1.0%,-4.2
Cc1cccc(C)c1NC(=O)CSc1nc(C2CC2)nc2ccccc12,-3.7,-11%,5%,-1.8%,18%[15.4 µM],.,-0.5
CCCN(CCC)C(=O)c1ccccc1C(=O)N(CCC)CCC,-2.8,25%,-2%,0.1%,16%,-1.5%,3.4
O=C1OCc2ccc(NC(=O)c3c(F)cccc3Cl)cc21,-3.8,15%,-1%,1.1%,34%,-0.4%,.
CCOC(=O)c1ccc(NC(=O)Nc2ccc3c4c(cccc24)C(=O)N3CC)cc1,1.2,3%,-1%,?,1%,3.1%,?
COC(=O)c1cc(NC(=O)c2ccccc2F)cc(C(=O)OC)c1,-2.6,6%,-6%,-1.3%,-30%,.,11
COc1cc(C(=O)Nc2ccc(-n3cnnn3)c(C)c2)cc(OC)c1OC,-3.4,16%,6%,?,-2%,-1.9%,6.7

Next part:
Structure,D2 agonist,Sfp PPTase inh,gsp antagonist,PINK1 modulator,gsp agonist,ClpP mod,Menin MLL FP FL
COC(=O)C1=C(C)N(C)C(C)=C(C(=O)OC)C1c1ccc(F)c(Br)c1,-3.3,-24%,-11%,14%,-16%,1.1%,5.0
S=C(NCc1cccnc1)Nc1cc(Cl)cc(Cl)c1,-2.6,6%,-6%,3.7%,-28%,-1.6%,1.5
CCOC(=O)N1CCN(C(=O)CN(c2cccc(OC)c2)S(C)(=O)=O)CC1,2.4,20%,14%,1.1%,-12%,0.3%,7.1
O=C(CCSCCc1ccccn1)Nc1ccccn1,0.9,4%,7%,-0.5%,2%,-1.6%,0.3
CCCCNC(=O)c1onc(CS(=O)(=O)c2ccccn2)c1C(=O)NCCCC,-1.3,.,-9%,15%,-11%,-1.5%,.
CCCC(=O)Nc1ccc2oc(-c3ccc(OC)c(Br)c3)nc2c1,1.0,10%,1%,?,-34%[inhibitor],8.9µM*,2.1
COc1ccc(NC2=C(Cl)C(=O)N(CCc3ccccc3)C2=O)cc1,-2.1,1%,2%,0.5%,8%,-1.1%,-2.3
Cc1ccc2nc3c(cc(C(=O)NCCN4CCOCC4)c(=N)n3CCCN3CCOCC3)c(=O)n2c1,-7.6,18%,6%,-1.5%,6%[15.4 µM],.,0.3
COc1ccc(Cl)cc1NC(=O)c1[nH]c(C)c(C(C)=O)c1C,-8.4,7%,3%,-1.3%,-2%[15.4 µM],.,-3.9
CCSc1ncc(/C=N/Nc2ccc(F)cc2)n1C,-0.2,0%,-14%,4.2%,-1%,-2.6%,1.6
N#CCOC(=O)C1CCN(S(=O)(=O)c2ccc3c(c2)OCCO3)CC1,-1.5,.,-18%,-3.6%,-3%,-0.8%,.
